High-throughput results from PubChem BioAssay.
LANA-H2B inh: blockers of LANA interaction with H2A/H2B – biochemical, FP readout, HTS, primary screen. Protein LANA1 (Human herpesvirus 8 type P (isolate GK18)), Q9QR71. cell-free LANA-H2A/H2B peptide, fluorescence polarization. inhibition, % (no concentration beside the values). 320,000 tested, 0.6% active. AID 2629, 2010; in the data active = inhibition mostly above about 10%, no sharp cut-off; inactive = mostly below about 6.7%;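 also: stock transfer was 7.5 nL into about 10 µL; 0% = median of vehicle wells and 100% = median of positive control wells; one replicate is shown; the record names a cut of 25% in any replicate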
Ecoli growth: E. coli growth inhibition, primary screen, OD600; AID 1053175, 2014; OD600 absorbance (concentration not given with the values); 330,000 tested, 0.21% active; Escherichia coli growth, 23 h; active compounds read low;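 active = OD600 absorbance below the run mean of sample wells minus 3.6 SD, in any replicate, cut at about 0.56 in these data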;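 also: stock transfer was 300 nL into about 60 µL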
B2AR ag: beta2AR agonists driving receptor internalization, primary screen, cell-based, FAP fluorogen, flow cytometry. Am2.2-beta2AR cells; reference of the scale not given here. response, % (concentration not given with the values). 340,000 tested, 0.43% active;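 active = response above a set limit, near 3 SD of response in nonfluorescent compounds, cut at about 42% in these data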;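 also: stock transfer was 100 nL into about 11 µL; a reference agonist was the positive control; negative values mostly stem from fluorescent compounds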
Target sequence (P07550 whole entry, looked up): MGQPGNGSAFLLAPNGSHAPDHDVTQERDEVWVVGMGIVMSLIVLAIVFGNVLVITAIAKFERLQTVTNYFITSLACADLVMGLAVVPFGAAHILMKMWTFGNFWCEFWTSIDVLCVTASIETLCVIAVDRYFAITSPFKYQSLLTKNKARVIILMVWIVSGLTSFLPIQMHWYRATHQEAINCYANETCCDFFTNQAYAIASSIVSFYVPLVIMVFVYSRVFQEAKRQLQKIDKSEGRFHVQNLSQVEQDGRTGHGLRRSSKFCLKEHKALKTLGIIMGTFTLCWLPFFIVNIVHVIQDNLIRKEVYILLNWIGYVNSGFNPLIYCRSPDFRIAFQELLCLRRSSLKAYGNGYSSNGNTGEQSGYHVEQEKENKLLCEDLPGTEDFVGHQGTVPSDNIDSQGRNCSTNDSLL
HNF4A DNA FP: change in binding of human HNF4A to DNA, primary screen, biochemical, fluorescence polarization, FITC-DNA. AID 1224865, 2016. 360,000 tested, 0.3% active. activity change, % at 10 µM. 1 h; in the data active = activity change above about 30%, passing the limit was not always enough;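 also: controls were the assay level and a saturating level of protein; the project sought stronger binding though the title names inhibitors; some compounds called inactive have numbers as strong as hits; positive values seem to mean higher polarization but the record does not say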
FGF22 binding: binders of human FGF22 protein, primary screen, FGF22 synaptogenesis inhibitor project, biophysical, thermal shift, single point; calls only at 9.99 µM; 340,000 tested, 1.5% active; recombinant FGF22 thermal shift, SYPRO orange fluorescence; percent of sucrose octasulfate shift, DMSO zero; Fibroblast growth factor 22 (Homo sapiens), Q9HCT0;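 active = melting point raised past a set limit in the mean and every replicate; three in four hits are not shown here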
Target sequence (Q9HCT0 whole entry, looked up): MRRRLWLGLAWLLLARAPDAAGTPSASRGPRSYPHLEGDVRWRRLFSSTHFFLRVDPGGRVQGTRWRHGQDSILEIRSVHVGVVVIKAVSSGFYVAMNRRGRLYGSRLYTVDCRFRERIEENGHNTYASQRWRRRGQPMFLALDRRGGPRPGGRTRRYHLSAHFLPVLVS
ALR inh: inhibitors of human ALR sulfhydryl oxidase, primary screen, biochemical, H2O2 detection, HRP-luminol luminescence, single point. FAD-linked sulfhydryl oxidase ALR (Homo sapiens), P55789. purified ALR, DTT oxidation. inhibition, % (no concentration beside the values). 290,000 tested, 3.8% active. AID 485317, 2010;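 active = mean and each replicate at 75% or more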;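 also: stock transfer was 7.5 nL into about 7.5 µL; 0% = neutral wells and 100% = wells with inactivated enzyme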
UCH37 DUB inh: inhibitors of human UCH37 deubiquitinase, primary screen, biochemical, Ub-AMC cleavage, fluorescence | purified proteasome/UCH37 | inhibition, % (test concentration not listed) | AID 588478, 2011 | 330,000 tested, 0.33% active;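 active = mean of two replicates above 20%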;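 also: 0% = compound-free wells with enzyme and 100% = wells lacking proteasome; stock transfer was 100 nL into about 20 µL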
Target sequence (Q9Y5K5 whole entry, looked up): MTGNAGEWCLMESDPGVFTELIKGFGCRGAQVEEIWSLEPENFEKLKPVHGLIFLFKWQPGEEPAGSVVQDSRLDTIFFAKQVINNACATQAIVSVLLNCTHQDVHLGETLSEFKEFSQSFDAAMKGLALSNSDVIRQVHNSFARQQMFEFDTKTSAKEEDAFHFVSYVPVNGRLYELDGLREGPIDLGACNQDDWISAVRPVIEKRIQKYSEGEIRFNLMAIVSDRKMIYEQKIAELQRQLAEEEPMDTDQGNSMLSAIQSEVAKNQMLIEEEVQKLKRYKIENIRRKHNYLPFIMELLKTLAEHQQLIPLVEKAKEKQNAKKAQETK
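Signal – fluorescence, ex 355 nm, em 460 nm · System – Proteasome-bound UCH37 · Input – 0.15 nM proteasome as dispensed · Timing – 30 min preincubation with enzyme, 25 min cleavage at room temperature · Read-out basis – percent inhibition of cleavage signal versus uninhibited and no-proteasome wells · Medium – Tris-HCl pH 7.4 with ATP-MgCl2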
Starred values were filed as active, the others as inactive; i = inactive; x = not tested or not shown.

#	mol	LANA-H2B inh	Ecoli growth	B2AR ag	HNF4A DNA FP
1	Cc1ccc(C(=O)NCCC2=CCCCC2)cc1S(=O)(=O)N1CCCCC1	1.8	0.65	6	-2.9
2	COc1ccc(CCNC(=O)C23CCC(C)(C(=O)O2)C3(C)C)cc1OC (stereo unspecified)	-1.7	0.7	11	0.4
3	Fc1cccc(Cl)c1CSc1nnc2ccccn12	3.4	0.65	-1	-0.2
4	Cc1ccccc1OCC(=O)OCC(=O)Nc1ncc(Cl)c(C)c1Cl	x	0.66	-1	-9.4
5	O=C(Nc1ccccc1)Nc1cnccn1	1.5	0.69	-1	-0.1
6	N#Cc1c(-c2cccs2)nc(SCC(=O)c2cccs2)[nH]c1=O	-2.3	0.68	7	15
7	Cc1ccc(NC(=O)c2ccc(Nc3ccccc3F)nc2)cc1	-0.8	0.71	6	1.7
8	COc1ccccc1CC(=O)N1CCN(S(=O)(=O)c2ccccc2F)CC1	1.7	0.7	0	-1.7

#	FGF22 binding	ALR inh	UCH37 DUB inh
1	i	2	3.2
2	i	-10	0.0
3	i	1	3.1
4	i	x	0.1
5	i	4	1.3
6	x	98*	5.3
7	i	2	3.1
8	i	-2	3.0

Continuation.
#	mol	LANA-H2B inh	Ecoli growth	B2AR ag	HNF4A DNA FP
9	O=C(OCc1cc2ccccc2[nH]c1=O)c1ccccn1	0.5	0.68	0	-0.4
10	Clc1ccccc1OCc1nn2c(-c3ccncc3)nnc2s1	-5.7	0.62	-2	0.4
11	COc1cc([N+](=O)[O-])ccc1NC(=O)CCN1C(=O)C2C3CCC(C3)C2C1=O (stereo unspecified)	2.7	0.69	-3	-1.0
12	CCN(CC(=O)Nc1ccc2c(c1)OCO2)Cc1nc2ccccc2c(=O)[nH]1	0.1	0.66	0	-2.1
13	Cc1ccc(C(=O)OCC(=O)NC2CCCCC2)s1	x	0.71	1	0.1
14	Cc1ccc(NC(=O)COC(=O)c2ccccc2Cl)cc1S(=O)(=O)N(C)C	7.1	0.71	-6	2.6
15	Cc1ccc(-c2nc3cc(N)ccc3o2)c(C)c1	4.5	0.7	-6	3.7
16	COC(=O)COC(=O)CC(CC(N)=O)c1ccccc1 (stereo unspecified)	-3.5	0.72	1	0.9

#	FGF22 binding	ALR inh	UCH37 DUB inh
9	x	-4	0.8
10	x	32	3.8
11	i	1	5.9
12	x	-4	0.2
13	i	x	3.9
14	i	-12	2.3
15	x	99*	-40
16	x	-15	2.6

Continuation.
#	mol	LANA-H2B inh	Ecoli growth	B2AR ag	HNF4A DNA FP
17	CC(=O)c1csc(COc2ccccc2)n1	3.6	0.62	-3	63*
18	CN(CC(=O)Nc1ccc(Cl)c(C(F)(F)F)c1)C(=O)c1ccc(S(=O)(=O)N2CCOCC2)cc1	x	0.69	-1	-4.9
19	NC(=O)C1CCCNC1 (stereo unspecified)	-9.0	x	3	-0.1
20	Cc1nc2cc(C(=O)N3c4ccccc4CC3C)ccc2s1 (stereo unspecified)	1.9	0.72	-10	4.1
21	O=C(NCc1ccc2c(c1)OCO2)C1CCN(c2ccc(S(=O)(=O)N3CCCC3)cc2)CC1	2.1	0.67	5	7.0
22	O=C1C(C2=NC(C(=O)O)C3C(=O)N(c4ccccc4)C(=O)C23)=C(O)c2ccccc21 (stereo unspecified)	-0.3	0.75	6	-3.1
23	COc1ccc(CNC(=O)c2ccc(Cn3cc(Cl)cn3)o2)cc1	-1.0	0.63	-3	1.3
24	COc1cccc(CN(C)C(=O)c2cccc(S(=O)(=O)N3CCN(Cc4ccccc4)CC3)c2)c1OC	x	0.69	6	0.7

#	FGF22 binding	ALR inh	UCH37 DUB inh
17	i	-15	0.9
18	i	x	-4.0
19	i	-6	1.7
20	i	-10	2.3
21	i	-4	5.0
22	x	-14	7.9
23	i	1	1.7
24	i	x	3.9

Next part
#	mol	LANA-H2B inh	Ecoli growth	B2AR ag	HNF4A DNA FP
25	CCOc1ccc(Oc2nc(NCC(C)C)nc(OC)n2)nn1	-1.8	0.71	4	0.7
26	CC(=O)c1ccc(NC(=O)C(C)OC(=O)CCN=C2NS(=O)(=O)c3ccccc32)cc1 (stereo unspecified)	2.0	0.7	-2	0.0
27	O=C(NC1CCCCC1)N1CCc2[nH]c3ccccc3c2C1	7.7	0.72	2	-3.4
28	O=c1c(Cl)c(N2CCN(c3ccc(F)cc3)CC2)cnn1-c1nc2ccccc2s1	1.4	0.67	-5	0.8
29	O=C(Nc1ccc(C(F)(F)F)cc1)C1CC(=O)N(c2ccc3c(c2)OCCO3)C1 (stereo unspecified)	12	0.75	8	-0.8
30	C/C(CC1CC(COCCC(C)C)OC1=O)=N\NC(N)=S (stereo unspecified)	-2.5	x	-1	-3.4
31	Cc1ccc(C(C)C)cc2c(C)ccc1-2	x	x	-7	-0.7
32	CC1CCN(c2ccc(C(=O)N3CCOCC3)cc2[N+](=O)[O-])CC1	4.7	0.71	-9	-5.3

#	FGF22 binding	ALR inh	UCH37 DUB inh
25	i	6	2.2
26	i	-6	0.4
27	x	x	0.1
28	x	-2	2.8
29	x	-1	-0.8
30	x	2	x
31	i	x	x
32	x	-32	6.6

New compounds follow
#	mol	LANA-H2B inh	Ecoli growth	B2AR ag	HNF4A DNA FP
33	Cc1cccc(NC(=O)c2ccco2)c1C(=O)O	4.8	0.68	0	0.5
34	COc1cccc(C(=O)COc2cccc(NC(=O)c3cccc([N+](=O)[O-])c3)c2)c1	-3.3	0.69	-1	-1.7
35	COc1ccc(S(=O)(=O)N2CCc3ccccc32)cc1C(=O)N1CCC(C)CC1	3.8	0.7	8	-3.9
36	Nc1ccc2c(c1)ncn2CCCn1cnc2cc(N)ccc21	0.4	0.68	-1	1.2
37	CC1(c2ccccc2Cl)NC(=O)N(CC(=O)Nc2cccnc2Cl)C1=O (stereo unspecified)	-8.2	0.67	8	-0.8
38	C/C(=N\NC(=O)c1c(Cl)c(C)nn1C)c1cccc(NC(=O)C2CCCC2)c1	0.4	x	0	-3.5
39	COc1cccc(/C=C2/SC(=S)N(CCC(=O)N3CCOCC3)C2=O)c1	5.7	0.65	14	4.5
40	COc1ccc(Cl)cc1C(=O)NC(C)C	-0.4	0.67	-4	1.1

#	FGF22 binding	ALR inh	UCH37 DUB inh
33	i	0	2.7
34	x	-6	2.3
35	i	-3	0.9
36	x	62	3.4
37	i	x	1.5
38	i	-17	x
39	i	x	9.5
40	i	-3	12

(continued)
#	mol	LANA-H2B inh	Ecoli growth	B2AR ag	HNF4A DNA FP
41	Cc1ccc(C(=O)NCC2CCCO2)cc1N1CCCC1=O (stereo unspecified)	1.8	0.68	3	0.0
42	CC(=O)OCC(=O)C1(O)CCC2C3CCC4=CC(=O)C=CC4(C)C3C(O)CC21C (stereo unspecified)	0.9	0.68	-7	5.0
43	O=C(NCCCc1ccccc1)c1cccc([N+](=O)[O-])c1	6.3	0.68	-7	0.2
44	Cc1cc(-c2nnc(CCC(=O)N3CCN(Cc4cccnc4)CC3)o2)c(C)o1	6.5	0.68	-5	5.6
45	COc1ccc(Cc2nnc(NC(=O)Nc3ccc(F)cc3)s2)cc1OC	8.6	0.69	-1	1.3
46	CC(=O)N(c1ccc2oc(=O)sc2c1)S(=O)(=O)c1ccccc1	2.6	0.77	5	-0.7
47	COc1ccc(C(=O)O/N=C(\C)c2cnccn2)cc1	-1.6	x	-2	-2.8
48	Cc1cccc(Nc2nc(NCCO)nc(N3CCCC3)n2)c1	-1.3	0.69	-6	2.5

#	FGF22 binding	ALR inh	UCH37 DUB inh
41	x	-1	3.4
42	i	-8	3.6
43	i	-3	5.3
44	i	6	2.8
45	i	6	4.2
46	x	1	0.6
47	i	5	x
48	i	x	3.9

Entries above marked active in ALR inh:
| nr | Compound | LANA-H2B inh | B2AR ag | HNF4A DNA FP | ALR inh | UCH37 DUB inh |
| --- | --- | --- | --- | --- | --- | --- |
| 6 | N#Cc1c(-c2cccs2)nc(SCC(=O)c2cccs2)[nH]c1=O | -2.3 | 7 | 15 | 98* | 5.3 |
| 15 | Cc1ccc(-c2nc3cc(N)ccc3o2)c(C)c1 | 4.5 | -6 | 3.7 | 99* | -40 |

Next section.
#	mol	LANA-H2B inh	Ecoli growth	B2AR ag	HNF4A DNA FP
49	COC(=O)CSc1nnc(SCc2ccccc2)s1	0.1	0.66	-5	1.1
50	Cc1cc(C)nc(NC(=O)c2ccc(Cl)c(Cl)c2)n1	1.7	0.73	-8	0.1
51	Cc1cc(C)cc(N2C(=O)C3CCCN3C2=S)c1 (stereo unspecified)	5.2	0.7	-5	3.6
52	Cc1ccc(C)c(-n2c(N)c(C(N)=O)sc2=S)c1	-2.1	0.66	-4	2.4
53	Cc1ccc(OCC(=O)Nc2cccc(S(=O)(=O)N3CCOCC3)c2)c([N+](=O)[O-])n1	0.0	0.69	-9	0.2
54	COc1ccc(Br)cc1CNC(=O)C1CCN(c2nnc(N3CCCC3=O)s2)CC1	7.9	0.68	-15	3.1
55	O=C(c1ccccc1)c1ccc2ccccc2c1	x	0.67	-9	1.7
56	CCOCCn1c(=NC(=O)/C=C/c2ccccc2Cl)sc2cc(NC(C)=O)ccc21	2.2	0.64	22	3.3

#	FGF22 binding	ALR inh	UCH37 DUB inh
49	x	-2	1.6
50	x	-3	-3.6
51	i	5	2.6
52	x	x	8.6
53	i	-4	0.5
54	i	-4	1.4
55	i	x	2.8
56	x	-6	-3.1

Following part
#	mol	LANA-H2B inh	Ecoli growth	B2AR ag	HNF4A DNA FP
57	CCc1ccc(-c2nc(CS(=O)CC(=O)NCc3ccco3)c(C)o2)cc1 (stereo unspecified)	-1.7	0.68	2	4.0
58	CCCCOc1cccc(C2C(C(=O)c3ccc(C)o3)=C(O)C(=O)N2Cc2ccco2)c1 (stereo unspecified)	-4.5	x	4	-3.3
59	NC(=N\N=Cc1ccco1)/C(N)=N/N=Cc1ccco1	x	0.66	-1	-6.5
60	COC(=O)c1cc(S(=O)(=O)NCc2ccc(S(N)(=O)=O)cc2)oc1C	-1.3	0.67	-3	1.1
61	O=C(NC(C(=O)N/N=C/c1ccccc1)c1n[nH]c(=O)c2ccccc12)c1ccccc1 (stereo unspecified)	8.2	x	-11	-1.2
62	O=C(CSc1nnc(NC(=O)c2c(F)cccc2F)s1)NCc1ccco1	1.0	0.7	-3	-4.3
63	Cc1ccc(CNCC(O)(c2ccccc2)c2ccc(Cl)cc2)cc1 (stereo unspecified)	x	0.64	31	-0.5

#	FGF22 binding	ALR inh	UCH37 DUB inh
57	i	99*	1.2
58	i	58	x
59	i	x	18
60	i	-15	-2.0
61	x	-5	x
62	i	6	1.8
63	i	x	2.9

An excerpt; rates above refer to the full screens.
